# Screening data deposited in PubChem by several laboratories.
# Calb FLC – C. albicans growth inhibition with fluconazole, primary screen, CaCi-2 strain, Alamar Blue fluorescence. C. albicans CaCi-2 (fluconazole-resistant clinical isolate) + fluconazole, 48 h. growth inhibition, % (concentration not given with the values). 0.57% of 300,000 active. AID 1979, 2009;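 active means most replicates above 75%; inconclusive means exactly half above 75%; inactive means most below 75%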;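 further: all wells also contain fluconazole at 8 µg/ml as a sub-toxic cotreatment; 0% = median of DMSO wells and 100% = median of geldanamycin control wells; wells of about 8 µL received 7.5 nL stock; the first replicate is given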
# ALR H2O2 inh – inhibitors of human ALR sulfhydryl oxidase, primary screen, biochemical, H2O2 detection, HRP-luminol luminescence, single point | FAD-linked sulfhydryl oxidase ALR (Homo sapiens), P55789 | purified ALR, DTT oxidation | 3.8% of 290,000 active | inhibition, % (no concentration beside the values);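 active means mean and each replicate at 75% or more; inconclusive means only one of the two met; inactive means neither met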;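 further: stock transfer was 7.5 nL into about 7.5 µL; 0% = neutral wells and 100% = wells with inactivated enzyme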
# B2AR ag – beta2AR agonists driving receptor internalization, primary screen, cell-based, FAP fluorogen, flow cytometry; Am2.2-beta2AR cells; reference of the scale not given here; response, % (concentration not given with the values); 0.43% of 340,000 active;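 active means response above a set limit, near 3 SD of response in nonfluorescent compounds, cut at about 42% in these data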;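 further: stock transfer was 100 nL into about 11 µL; a reference agonist was the positive control; negative values mostly stem from fluorescent compounds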
# RanGTP-Imp inh – inhibitors of RanGTP-importin-beta interaction, primary screen, biochemical, FRET, CFP-Ran, YFP-importin-beta, homogeneous; cell-free CFP-Ran/YFP-importin-beta FRET ratio; inhibition, % (concentration not given with the values); AID 2216, 2009; 1.1% of 300,000 active; Ran GTPase (GTP-bound) - importin-beta complex;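 active means most replicates above 15%; inconclusive means exactly half above 15%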;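 further: 0% = DMSO wells and 100% = Ran loaded with GDP instead of GTP; wells of about 40 µL received 100 nL stock; the first replicate is given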
# HNF4A DNA FP – change in binding of human HNF4A to DNA, primary screen, biochemical, fluorescence polarization, FITC-DNA; Hepatocyte nuclear factor 4-alpha (Homo sapiens), P41235; 1 h; activity change, % at 10 µM; 0.3% of 360,000 active; in the data active means activity change above about 30%, passing the limit was not always enough;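 further: controls were the assay level and a saturating level of protein; the project sought stronger binding though the title names inhibitors; some compounds called inactive have numbers as strong as hits; positive values seem to mean higher polarization but the record does not say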
# LANA-H2A inh – blockers of LANA interaction with H2A/H2B – biochemical, FP readout, HTS, primary screen; cell-free LANA-H2A/H2B peptide, fluorescence polarization; inhibition, % (no concentration beside the values); 0.6% of 320,000 active; in the data active means inhibition mostly above about 10%, no sharp cut-off; inactive means mostly below about 6.7%;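 further: stock transfer was 7.5 nL into about 10 µL; 0% = median of vehicle wells and 100% = median of positive control wells; one replicate is shown; the record names a cut of 25% in any replicate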
# Target sequence (Q9QR71 whole entry, looked up): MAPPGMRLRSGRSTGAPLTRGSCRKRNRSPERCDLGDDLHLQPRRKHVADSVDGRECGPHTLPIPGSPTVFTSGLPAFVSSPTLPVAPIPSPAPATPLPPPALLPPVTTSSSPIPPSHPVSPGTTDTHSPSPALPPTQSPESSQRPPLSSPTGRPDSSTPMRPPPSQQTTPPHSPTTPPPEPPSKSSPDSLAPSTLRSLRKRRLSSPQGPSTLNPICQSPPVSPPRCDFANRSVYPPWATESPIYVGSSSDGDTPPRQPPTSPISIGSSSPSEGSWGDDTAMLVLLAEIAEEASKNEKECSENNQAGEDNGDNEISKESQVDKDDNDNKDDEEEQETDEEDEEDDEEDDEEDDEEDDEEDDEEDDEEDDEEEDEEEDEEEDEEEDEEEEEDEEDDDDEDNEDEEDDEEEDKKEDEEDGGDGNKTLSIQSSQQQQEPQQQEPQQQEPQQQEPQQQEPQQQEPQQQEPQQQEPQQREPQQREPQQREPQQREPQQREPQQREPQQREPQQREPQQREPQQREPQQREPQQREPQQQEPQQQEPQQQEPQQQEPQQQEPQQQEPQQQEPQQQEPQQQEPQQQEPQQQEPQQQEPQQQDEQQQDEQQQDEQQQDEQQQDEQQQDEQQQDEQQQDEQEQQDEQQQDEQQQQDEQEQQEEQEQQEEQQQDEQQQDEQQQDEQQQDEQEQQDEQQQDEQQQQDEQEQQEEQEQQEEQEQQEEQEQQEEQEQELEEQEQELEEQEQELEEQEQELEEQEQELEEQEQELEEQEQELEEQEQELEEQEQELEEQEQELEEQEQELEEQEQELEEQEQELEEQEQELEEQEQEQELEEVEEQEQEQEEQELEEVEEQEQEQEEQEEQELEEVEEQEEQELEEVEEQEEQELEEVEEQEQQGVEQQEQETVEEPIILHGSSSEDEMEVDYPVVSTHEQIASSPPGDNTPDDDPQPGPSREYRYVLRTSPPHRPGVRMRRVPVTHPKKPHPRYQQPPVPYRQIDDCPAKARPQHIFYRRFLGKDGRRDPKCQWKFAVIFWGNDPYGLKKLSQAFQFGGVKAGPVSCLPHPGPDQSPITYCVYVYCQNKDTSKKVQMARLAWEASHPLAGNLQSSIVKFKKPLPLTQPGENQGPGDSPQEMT
# Vif A3G – inhibitors of Vif binding to APOBEC3G peptide, primary screen, biochemical, TR-FRET, GST-Vif 1-94, biotin-A3G peptide, dose response retest (AID 1117319); TR-FRET GST-Vif / biotin-A3G peptide binding; higher % means a stronger effect; test concentration not given here; strong numbers were not always called active; inhibition, %, or IC50 in µM where a hit was titrated; 0.57% of 260,000 active;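 active means above the screen mean plus three standard deviations and confirmed in dose response; inconclusive means results disagree or hit not tested in dose response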;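 further: Vif residues 1-94 fused to GST binding biotinylated APOBEC3G peptide 110-148; 0% = full assay without inhibitor and 100% = GST in place of GST-Vif; retest series ran down from 100 µM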
# * hit, by the source's call; u = inconclusive; x = not tested or not shown; & = joins results of further samples.
1: Cc1cccc2cc(CN(CCN(C)C)C(=S)Nc3ccccc3)c(=O)[nH]c12
2: COc1ccc(S(=O)(=O)N2CCCCCC2)cc1C(=O)Nc1ccc(C)cn1
3: CCCCC1(C)OC(=O)C(=Cc2ccc(-c3ccc(Cl)c(C(=O)O)c3)o2)C(=O)O1 (centres undefined)
4: O=C(c1ccc(COc2ccccc2[N+](=O)[O-])o1)N1CCCCC1
5: O=C(CSc1nnc(SCc2ccc(Cl)cc2)s1)N/N=C/c1ccccc1C(=O)O
6: CCCC1=C([O-])C2N=CC=CC2=[N+](c2ccccn2)C1=O (centres undefined)
7: Cc1cccc(C)c1NC(=O)CNC(=O)c1c(C)nn(C)c1Cl
8: COc1ccc(CN([C@H](C)CO)S(=O)(=O)N(Cc2ccccc2)[C@H](CO)C(C)C)cc1

compound no.	1	2	3	4	5	6	7	8
Calb FLC	0	-4	6	5	-13	16	u	x
ALR H2O2 inh	-2	-7	98*	-7	x	0	x	-1
B2AR ag	3	3	0	0	1	-5	-3	-4
RanGTP-Imp inh	-0.3	-5.3	2.8	7.0	-2.9	-1.1	3.9	x
HNF4A DNA FP	3.2	3.8	-20	5.5	2.0	-3.7	6.1	-0.2
LANA-H2A inh	3.0	-3.8	-2.4	8.6	-0.3	8.5	-2.4	2.8
Vif A3G	x	-29%	x	u	x	x	-1%	x

9: N#Cc1ccc(NC(=O)CSc2nc3[nH]c(=O)cc(O)c3s2)cc1
10: COc1ccc([N+](=O)[O-])cc1NC(=O)c1ccc(N2C(=O)CCC2=O)cc1
11: CC1CCC(NC(=O)C2COc3ccccc3O2)CC1 (centres undefined)
12: COc1cc(OC)cc(C(=O)N2CCCC(Nc3ccc(F)cc3)C2)c1 (centres undefined)
13: COc1cc(/C=N/NC(=S)N/N=C/c2cc(OC)c(OC)c(OC)c2)cc(OC)c1OC
14: COc1ccc(C(=O)N2CCN(S(=O)(=O)c3ccc(Br)cc3)CC2)cc1
15: CCOC(=O)CN1C(=O)NC2NC(=O)NC21 (centres undefined)
16: Cc1[nH]n(-c2ccccc2)c(=O)c1C(c1cccc([N+](=O)[O-])c1O)c1c(C)[nH]n(-c2ccccc2)c1=O

compound no.	9	10	11	12	13	14	15	16
Calb FLC	x	-2	2	16	-8	x	-1	-3
ALR H2O2 inh	99*	-7	21	99*	88*	-13	-5	25
B2AR ag	13	-2	0	3	7	-5	-2	9
RanGTP-Imp inh	x	-2.9	x	3.4	-1.1	x	3.5	2.0
HNF4A DNA FP	0.4	6.8	0.6	2.0	-2.7	-0.9	-0.4	0.3
LANA-H2A inh	x	2.6	-6.3	-0.8	-1.8	4.7	-13	2.4
Vif A3G	-1%	u	6%	3%	x	-5%	27%	17%

17: N#Cc1c(C(F)(F)F)cc(-c2cccs2)nc1SC(C(=O)O)c1ccccc1 (centres undefined)
18: Cc1noc(C)c1C(=O)NCCCN1CCCC1=O
19: O=C(CN1C(=O)CSc2ccccc21)N1CCc2ccccc21
20: O=Cc1cn(CCOc2ccccc2F)c2ccccc12
21: O=C(NCCOc1ccccc1)C(=O)c1c[nH]c2ccccc12
22: CC(=O)Nc1ccc(S(=O)(=O)N(C)CC(=O)Nc2ccccc2N2CCOCC2)cc1
23: CCCC(=O)Nc1nnc(CCc2ccccc2)s1
24: Cc1cc(S(=O)(=O)N2CCCC2)ccc1OCC(=O)NCc1ccccc1

compound no.	17	18	19	20	21	22	23	24
Calb FLC	14	13	27	3	-10	-6	-10	4
ALR H2O2 inh	22	3	-9	-4	-4	-1	1	-6
B2AR ag	15	4	4	-2	9	3	-7	2
RanGTP-Imp inh	-2.7	2.9	u	-2.7	-1.3	-0.1	4.4	1.0
HNF4A DNA FP	-0.6	0.3	1.9	-0.1	2.6	-0.3	-0.2	3.6
LANA-H2A inh	4.1	1.5	-4.1	-1.1	4.0	0.6	1.1	2.3
Vif A3G	x	u	-2%&8%	x	-5%	3%	x	2%

# Complete entries from above.
# COc1ccc(C(=O)N2CCN(S(=O)(=O)c3ccc(Br)cc3)CC2)cc1 is listed as Calb FLC: x; ALR H2O2 inh: -13; B2AR ag: -5; RanGTP-Imp inh: x; HNF4A DNA FP: -0.9; LANA-H2A inh: 4.7; Vif A3G: -5%
# COc1cc(OC)cc(C(=O)N2CCCC(Nc3ccc(F)cc3)C2)c1 (centres undefined) is listed as Calb FLC: 16; ALR H2O2 inh: 99*; B2AR ag: 3; RanGTP-Imp inh: 3.4; HNF4A DNA FP: 2.0; LANA-H2A inh: -0.8; Vif A3G: 3%
# Cc1cccc2cc(CN(CCN(C)C)C(=S)Nc3ccccc3)c(=O)[nH]c12 is listed as Calb FLC: 0; ALR H2O2 inh: -2; B2AR ag: 3; RanGTP-Imp inh: -0.3; HNF4A DNA FP: 3.2; LANA-H2A inh: 3.0; Vif A3G: x

# Additional records follow:
25: Cc1cc2cc(CNC(=S)NC3CCCCC3)ccc2[nH]1
26: Cc1cccc(N(C)C(=O)c2cc(S(=O)(=O)N3CCc4ccccc43)cn2C)c1
27: O=C(N/C=N/OCc1ccc(Cl)cc1Cl)NOCc1ncc(C(F)(F)F)cc1Cl
28: COc1ccc2nc(C)cc(N/N=C/c3ccc(F)cc3)c2c1
29: COc1ccccc1N(CC(=O)NCCSc1ccccc1)S(=O)(=O)c1ccccc1
30: COCCOC(=O)c1c(NC(=O)COC(=O)c2ccc(C)o2)sc(C(N)=O)c1C
31: O=C(N/N=C/c1ccc([N+](=O)[O-])cc1)c1cccc2cc[nH]c12
32: N#CC(c1ccc(Cl)nn1)c1c(F)cccc1Cl (centres undefined)

compound no.	25	26	27	28	29	30	31	32
Calb FLC	u	9	18	-16	10	x	7	10
ALR H2O2 inh	-11	-16	x	-2	-14	-2	8	3
B2AR ag	1	3	-7	26	6	0	1	3
RanGTP-Imp inh	1.0	5.5	0.5	-1.9	-3.9	x	1.1	-0.2
HNF4A DNA FP	1.1	-8.6	-1.7	-3.1	5.2	1.7	0.1	-2.8
LANA-H2A inh	-2.1	0.9	2.6	2.7	2.8	-0.1	5.4	-5.3
Vif A3G	2%	x	-7%	-2%	0%	-17%	x	6%

33: O=C(c1ccc2c(c1)OCO2)N1CCN(c2ccc(C(F)(F)F)cn2)CC1
34: NC(=O)C1CCCN1 (centres undefined)
35: CC(=O)c1cccc(NC(=O)Nc2ccc(C)cc2)c1
36: Cc1ccc(N(CC(=O)Nc2cccc(N(C)S(C)(=O)=O)c2)S(C)(=O)=O)cc1
37: COc1cccc(-c2csc(N3CCN(C(=O)NC45CC6CC(CC(C6)C4)C5)CC3)n2)c1
38: CC(c1nnnn1C1CCCCC1)N(Cc1ccccc1)Cc1cccnc1 (centres undefined)
39: C/C(=N/NC(=O)c1ccc(-c2ccccc2)cc1)c1cccc(O)c1
40: C=CCNC(=O)C1CCC(=O)N1S(=O)(=O)c1ccc(C)cc1 (centres undefined)

compound no.	33	34	35	36	37	38	39	40
Calb FLC	-24	22	-8	-3	-13	27	-21	42
ALR H2O2 inh	-3	0	6	4	-12	-7	50	-5
B2AR ag	-2	4	5	-6	10	1	-3	17
RanGTP-Imp inh	3.3	2.7	-1.0	-5.2	-0.8	4.2	x	-0.5
HNF4A DNA FP	1.6	-5.0	6.8	-1.5	-0.9	-0.7	1.1	2.9
LANA-H2A inh	-4.7	1.6	0.6	-5.5	-2.5	1.0	-2.8	-2.9
Vif A3G	x	-6%	u	5%	-10%	72%	x	1%

41: CC(Sc1nc(NCc2ccccc2)nc(N2CCOCC2)n1)C(=O)Nc1ccccc1 (centres undefined)
42: O=C(NC1CCCCCCC1)NC1CCCCC1
43: Cc1ccc(NC(=O)C2Cc3ccccc3CN2C(=O)c2ccco2)cc1S(=O)(=O)N(C)C (centres undefined)
44: NC(=O)CSc1nnc(NC(=O)C23CC4CC(CC(C4)C2)C3)s1
45: O=S(=O)(NCc1cccnc1)c1ccc(Cl)c(Cl)c1
46: CC(C)CN1C(=O)c2ccc(C(=O)NCc3ccc4c(c3)OCO4)cc2C1=O
47: CC(C)Nc1nnc(SCc2cc(=O)n3ccsc3n2)s1
48: Cc1[nH]nc(-c2cccnc2)c1N=NN(C)C

compound no.	41	42	43	44	45	46	47	48
Calb FLC	0	9	-1	-5	17	-21	-1	x
ALR H2O2 inh	-6	1	x	-16	-3	-5	-11	x
B2AR ag	0	3	8	-6	-10	-2	-5	3
RanGTP-Imp inh	4.1	1.1	0.4	0.6	-0.4	0.4	-3.4	x
HNF4A DNA FP	0.5	-1.9	-2.8	0.0	0.2	-4.7	-5.4	-2.4
LANA-H2A inh	1.8	-2.3	-16	0.1	-2.2	-1.0	-2.3	x
Vif A3G	-8%	-6%	x	-3%	-2%	8%	x	-4%

49: C[C@H](NS(=O)(=O)c1ccc(Cl)cc1)C(=O)OCC(=O)N1CCOCC1
50: CN(C)C(=O)C#Cc1ccccc1
51: O=C(CSc1nncn1-c1ccccc1)Nc1cccc(S(=O)(=O)N2CCCCC2)c1
52: O=C(COC(=O)/C=C/c1ccco1)NCc1ccco1
53: Fc1cc(F)cc(NC(=S)NCCCN2CCOCC2)c1
54: CCc1ccc(OCC(=O)N/N=C(\C)c2ccccc2OC(F)F)cc1
55: O=C(CNCc1ccccc1)Nc1ccc(Oc2ccccc2)cc1
56: CCCCNC(=O)C(=O)c1ccccc1NC(C)=O

compound no.	49	50	51	52	53	54	55	56
Calb FLC	x	-3	-33	3	-19	10	-4	-2
ALR H2O2 inh	-3	3	-4	26	-5	-3	0	-2
B2AR ag	-4	-4	x	-2	5	4	-18	11
RanGTP-Imp inh	x	-1.6	2.9	2.4	-0.4	-0.6	-0.4	6.8
HNF4A DNA FP	-2.9	-0.2	x	-10.0	3.1	-0.4	2.2	-2.6
LANA-H2A inh	-5.9	-0.1	-1.9	1.3	-3.2	-1.2	3.5	2.1
Vif A3G	x	-4%	-1%	u	74%	-4%	x	13%

57: O=c1c2cnn(-c3ccccc3)c2nnn1Cc1ccccn1
58: O=C(CCNS(=O)(=O)c1ccccc1)NNC(=O)COc1ccccc1F
59: O=C1c2ccccc2S(=O)(=O)c2cc(C(=O)N3CCN(c4ncccn4)CC3)ccc21
60: Cc1ccc(C)c(N2CCN(S(=O)(=O)c3ccc4c(c3)CC(C)N4C(=O)C3CC3)CC2)c1 (centres undefined)
61: O=C(O)c1cc(-c2ccc(/C=N/NC(=S)Nc3ccccc3)o2)ccc1Cl
62: CC(NC(=O)Nc1ccc(Cl)cc1)C1CCCO1 (centres undefined)
63: COc1cccc(CCNC(=O)CC2C(=O)NCCN2Cc2ccc(C)o2)c1 (centres undefined)
64: COC(=O)Cn1c(=NC(=O)c2ccc([N+](=O)[O-])s2)sc2cc(Br)ccc21

compound no.	57	58	59	60	61	62	63	64
Calb FLC	5	x	10	-3	-7	-7	-11	-5
ALR H2O2 inh	-10	x	1	0	15	-20	10	98*
B2AR ag	10	10	-4	0	10	-5	-4	x
RanGTP-Imp inh	-1.6	x	-3.2	-0.6	-0.6	u	1.6	-0.5
HNF4A DNA FP	4.4	-2.0	-0.6	-0.5	-6.0	-1.1	2.5	x
LANA-H2A inh	2.7	-1.2	3.0	1.4	6.2	-8.4	-7.1	3.0
Vif A3G	-22%	x	x	-2%	9%	-9%	10%	x
